Screening results as filed in PubChem BioAssay.
MT1-MMP act inh: inhibitors of human MT1-MMP activation | HT1080 RFP-PRO-GFP cells, GFP/RFP ratio fluorescence, overnight; percent of plate control window, DMSO zero | GFP/RFP ratio change, % at 20 µM | 0.061% of 360,000 active;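 active = GFP/RFP ratio change of at least 30% with cell ATP level not reduced by more than half and red fluorescence within 50% of control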; note: strong numbers were not always called active
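Test system: HT1080 cells expressing an RFP-PRO-GFP fluorescent reporter construct / Compound dosing: single-point 20 µM compound, 1% DMSO / Schedule: cells overnight before dosing, compound overnight, 37 °C, 5% CO2 / Evaluation: GFP/RFP fluorescence ratio / Control set: DMSO and RFP-L50D-GFP cell wells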
UUG fidelity: alters start codon recognition fidelity in yeast | S. cerevisiae UUG-firefly luciferase reporter, luminescence/redox ratio | activity score, % at 18.7 µM | 0.13% of 350,000 active;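 active = replicate mean at a twofold rise or more, about +100% in these data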;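 note: firefly luciferase made from a UUG start codon reports start codon fidelity; reporter light over untreated wells divided by growth signal over untreated wells; some hits fall short of that in this replicate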
Rce1 inhib: inhibitors of yeast Ras-converting enzyme. yeast membranes, quenched prenylated peptide cleavage fluorescence. AID 2563. 0.27% of 290,000 active. calls only;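 active = fall in fluorescence gain of 50% or more versus controls, with final raw signal at or below 3038400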;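 note: plate controls were neutral control wells for no effect and wells lacking membranes for full effect; tested at 10 µM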
Target sequence (Q03530 whole entry, looked up): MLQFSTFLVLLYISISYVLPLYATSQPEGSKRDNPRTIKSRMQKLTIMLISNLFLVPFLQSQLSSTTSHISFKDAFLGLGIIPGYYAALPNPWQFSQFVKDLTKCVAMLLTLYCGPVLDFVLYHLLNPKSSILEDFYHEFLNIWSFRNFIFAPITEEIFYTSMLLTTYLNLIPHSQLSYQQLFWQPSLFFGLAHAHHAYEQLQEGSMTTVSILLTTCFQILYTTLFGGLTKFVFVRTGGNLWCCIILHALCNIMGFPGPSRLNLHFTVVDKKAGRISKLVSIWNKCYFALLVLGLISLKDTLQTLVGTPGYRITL
PABP FP inh: PABP-poly(A) binding inhibition | inhibition, % at 35 µM | PABP-poly(A) RNA binding, fluorescence polarization | P11940 | AID 2014 | 1% of 290,000 active;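 active = 50% or more with normal probe brightness, or confirmed in later tests; about a fifth of its hits are not listed in these tables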;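 note: calls also rest on retests at 20 µM and on dose response follow-up; controls were probe without protein and protein plus probe with vehicle; some compounds called inactive have numbers as strong as hits; many hits fall short of the cut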
HIV Env fusion: HIV envelope-mediated fusion inhibition; HeLa-JRFL Env/CEM21 cell fusion, luciferase; inhibition, % at 12.3 µM; 1.1% of 360,000 active;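 active = mean replicate inhibition score of at least 50 and every replicate individually at or above 50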;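 note: 0% = plate neutral controls and 100% = maraviroc near 300 nM; one replicate is shown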
eIF4H FP inh: inhibitors of RNA binding by human eIF4H; Q15056; eIF4H fluorescence polarization binding assay; inhibition, % at 35 µM; 0.94% of 290,000 active; AID 2012;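 active = 50% or more with normal probe brightness, or confirmed in later tests; about a fifth of its hits are not listed in these tables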;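 note: calls also rest on retests at 20 µM and on dose response follow-up; 0% = protein and probe with vehicle and 100% = probe without protein; strong numbers were not always called active; many hits fall short of the cut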
CSC inhib: cancer stem cell inhibition; cancer stem cell-like cells viability, luminescence; inhibition, % at 7.5 µM; 1.1% of 300,000 active;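 active = mean at 75% or more and at least half the replicates too; tested in HMLE shEcad cells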;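 note: 0% = median of negative and 100% = median of positive control wells; the first replicate is given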
eIF4H FP inh retest: further read-out of eIF4H FP inh, marked with its call; inhibition, %; compound at 20 µM; confirmation average;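 mean of two retest wells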
PABP FP inh retest: also measured in PABP FP inh; calls as there; inhibition, %; compound at 20 µM; confirmation repeats;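 mean of two retest wells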
MT1-MMP act inh RFP: second read-out of MT1-MMP act inh, no call of its own (marks repeat the call); RFP signal change, %; measured here: RFP expression control read;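 0 = vehicle wells; hits needed this value within 50% of zero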
An asterisk follows results filed as active; i = inactive; x = not tested or not shown. These rows are one share of the data. The share of hits here may be higher or lower than overall.

Preview (2 entries):
SMILES | MT1-MMP act inh | MT1-MMP act inh RFP | UUG fidelity | Rce1 inhib | PABP FP inh | HIV Env fusion | eIF4H FP inh | CSC inhib | others
CC1(C)CC(c2nc(-c3ccccc3)cs2)CCS1 (configuration not stated) | -3 | -5 | x | i | 41 | -19 | 0 | 12
CCc1nc2ccccc2c(C(=O)OCC(=O)NCc2ccco2)c1C | 13 | -1 | -8 | i | 7 | x | 3 | -2

The listing (from the top)
SMILES | MT1-MMP act inh | MT1-MMP act inh RFP | UUG fidelity | Rce1 inhib | PABP FP inh | HIV Env fusion | eIF4H FP inh | CSC inhib | others
CC1(C)CC(c2nc(-c3ccccc3)cs2)CCS1 (configuration not stated) | -3 | -5 | x | i | 41 | -19 | 0 | 12
CCc1nc2ccccc2c(C(=O)OCC(=O)NCc2ccco2)c1C | 13 | -1 | -8 | i | 7 | x | 3 | -2
CC1CCCN(C(=O)CNC(=O)c2ccco2)C1 (configuration not stated) | -3 | -2 | -9 | i | -3 | -13 | -6 | x
CCOC(=O)C1(CCOc2ccccc2)CCN(Cc2cc(OC)ccc2OC)CC1 | 0 | -3 | -13 | i | 11 | -56 | 7 | 33
O=C1C2ON(c3ccccc3)C(c3ccncc3)C2C(=O)N1c1ccccc1 (configuration not stated) | 1 | 2 | -20 | i | -4 | -50 | -8 | 2
O=C(Nc1ccc2c(c1)OCCO2)C(=O)NC1CC1 | 2 | 2 | -42 | i | -1 | -9 | -9 | 26
Cc1ccc(NS(=O)(=O)c2cc3c4c(cccc4c2)C(=O)NC3=O)cc1 | -17 | -13 | x | i | 6 | -2 | 11 | -16
O=c1oc2cc([N+](=O)[O-])ccc2nc1/C=C(\O)c1cccc(Br)c1 | 6 | -3 | x | i | 12 | 26 | 8 | 30
CS(=O)(=O)c1ccc(C(=O)NCC(c2ccco2)N2CCCCC2)cc1 (configuration not stated) | -5 | 1 | x | i | 1 | 0 | 83* | -6 | eIF4H FP inh retest=55*;PABP FP inh retest=31
CC(=O)Nc1ccc(-c2ccccc2)s1 | 2 | 0 | -9 | i | 46* | x | 69 | -5 | eIF4H FP inh retest=-8;PABP FP inh retest=96*
CC(=O)Nc1cc(C(N)=O)c(Cl)cc1Cl | -1 | -1 | -13 | i | 0 | -95 | -2 | -4
CC(C)(C)c1ccc(NC(=O)c2ccccc2)c([N+](=O)[O-])c1 | 2 | 0 | -37 | i | 6 | -206 | 2 | x
CCN(CC)C(=O)Oc1ccc(Cl)c2cccnc12 | 4 | 1 | -32 | i | 1 | 19 | -7 | -9
CCN(CC)c1ccc(/C=N/Nc2nc3ccccc3[nH]2)c(O)c1 | 0 | -11 | -20 | i | -8 | x | 16 | 101*
COCCCNC(=S)N(Cc1ccccc1)Cc1ccccc1 | 0 | 0 | -23 | i | 7 | 14 | -9 | -13
Cc1ccc([N+](=O)[O-])cc1NC(=O)CN(C(=O)c1ccc(Cl)cc1)C1CCCCC1 | -3 | -9 | -9 | i | -10 | -54 | -10 | -17
CCOP(=O)(OCC)/C(C#N)=C/c1ccc(-c2ccc(F)cc2F)o1 | 1 | -3 | 1 | i | -3 | 13 | -4 | 16
CCCOc1ccc(C2C3=C(Nc4nc(N)[nH]c(=O)c42)c2ccccc2C3=O)cc1 (configuration not stated) | 13 | -4 | 8 | i | 24 | 22 | 12 | 10
COc1ccc(CNc2nc(NCc3ccc(OC)cc3)n(C(C)=O)n2)cc1 | 2 | 0 | -14 | i | 5 | -27 | -1 | x
CN(C)c1ccc(N2C(=O)CSC2=S)cc1 | 19 | 15 | -8 | i | -5 | 30 | 88 | 11 | eIF4H FP inh retest=-6;PABP FP inh retest=7
Cc1ccc2oc(C(=O)N(C)Cc3ccon3)c(C)c2c1 | 9 | 1 | -11 | i | 14 | -61 | -14 | 1
Cc1cc(C)cc(C(=O)N2CCC(C(N)=O)CC2)c1 | 0 | 2 | -16 | i | -8 | -94 | 3 | 3
COc1ccc(CCC(=O)Nc2cccc(Cl)c2)cc1 | 2 | 4 | x | i | 1 | x | -4 | -12
O=C(CN1CCC(NC(=O)C2CCCCC2)CC1)NCc1ccco1 | 1 | 5 | x | i | -76 | -9 | 2 | -6
COc1cccc(C(=O)c2cc3ccc(O)cc3oc2=O)c1 | -5 | 1 | -23 | i | 1 | x | 5 | 3

Additional records.
SMILES | MT1-MMP act inh | MT1-MMP act inh RFP | UUG fidelity | Rce1 inhib | PABP FP inh | HIV Env fusion | eIF4H FP inh | CSC inhib | others
Cc1ccc(C(=O)NCC(=O)NCC(=O)OCc2ccc(F)cc2)cc1 | 7 | 2 | x | i | -11 | 8 | -5 | -1
CCOC(=O)c1c(S(=O)(=O)N2CCCC(C(=O)Nc3cccc(C)n3)C2)c(C)n(C)c1C (configuration not stated) | -4 | 0 | -6 | i | x | 21 | x | 0
Cc1nnc(NC(=O)CCn2c(=O)oc3ccc(Cl)cc32)s1 | 0 | 3 | -16 | i | 10 | 29 | -9 | -17
Cc1cc(C)c(S(=O)(=O)N(C)CC(=O)NCc2ccccn2)c(C)c1 | x | x | x | i | 5 | 14 | 8 | -7
CC(C)NC(=O)C(=O)c1cn(C)c2ccccc12 | -1 | 3 | -4 | i | -4 | -5 | 1 | -4
O=C(CSc1ccccc1F)NCC(c1cccs1)N1CCOCC1 (configuration not stated) | 1 | 0 | -12 | x | x | 0 | x | -10
COc1ccc(NC(=O)/C(Cl)=C(/Cl)S(=O)Cc2ccccc2)cn1 (configuration not stated) | -21 | -28 | x | i | 0 | x | -9 | x
N#Cc1cnn(Cc2ccccc2)c1/N=C/N1CCOCC1 | -1 | 1 | -3 | i | 10 | -63 | 2 | -4
Cn1c(N)c(C(=O)c2ccc(Cl)cc2)c(=O)n(C)c1=O | 2 | 3 | x | i | -7 | 3 | -5 | -13
COc1ccc(CNC(=O)C2=CCN(S(=O)(=O)c3ccc(C)cc3)CC2)cc1 | 2 | -3 | -24 | i | 11 | -7 | -8 | -4
CN(C(=O)CCCN1C(=O)c2cccc3cccc(c23)C1=O)c1ccccc1 | -6 | 1 | x | i | 0 | -22 | 2 | -16
C#CCOCCOCCOCCNc1nc(N2CCN(C(=O)CCCCCCCCCCNC(=O)[C@H](CCCCN)n3cc(CCO)nn3)CC2)nc(N2CCN(C(=O)CCCCCCCCCCNC(=O)[C@H](CCCCN)n3cc(CCCC(=O)O)nn3)CC2)n1 | 6 | 5 | 19 | x | x | -21 | x | 0
CC(C)(C)C(=O)Nc1ccc(Sc2ccc([N+](=O)[O-])cc2)cc1 | x | x | x | i | -5 | 21 | -3 | -21
Cc1cc(C)c(OCC(=O)Nc2ccc(S(=O)(=O)N3CCOCC3)cc2)c(C)c1 | -1 | -4 | -4 | i | 6 | 5 | 4 | -8
O=C(O)c1ccccc1-c1ccccc1C(=O)NCc1cccc(C(F)(F)F)c1 | 1 | -1 | x | i | 8 | -54 | 10 | -3
CCCN1C(=O)/C(=C\c2nc3ccccc3c(=O)[nH]2)c2ccccc21 | -5 | -7 | -6 | x | -6 | -15 | -4 | x
COc1cccc(NC(=O)CN(c2ccc([N+](=O)[O-])cc2)S(=O)(=O)c2ccccc2)c1 | 2 | 1 | x | i | -9 | -5 | -2 | -4
CCOc1cc(NC(=S)NC)c(OCC)cc1NC(=O)c1ccco1 | 2 | 1 | x | i | 16 | -13 | -2 | -7
Cc1ccc(NC(=O)c2ncn(CC(=O)N3CCN(c4ccccn4)CC3)n2)cc1C | 2 | 3 | -10 | x | x | -12 | x | x
Cc1ccc2nc(Nc3nc(CSc4nnc(C)s4)cc(=O)[nH]3)nc(C)c2c1 | 2 | -6 | x | i | -5 | -8 | 0 | x
CC1CCN(c2c(NCc3ccc(C(=O)NCc4ccco4)cc3)c(=O)c2=O)CC1 | -2 | 2 | 0 | i | -9 | 23 | 8 | -8
Clc1cccc(CN2CCCCCCC2)c1Cl | 4 | 6 | 1 | i | 54 | 0 | -8 | -1 | eIF4H FP inh retest=-9;PABP FP inh retest=9
COC(=O)NNC(=S)NCc1ccccc1 | 5 | 6 | -13 | i | -3 | x | 1 | -6
CN(CC(=O)Nc1cccc(F)c1)C(=O)C1CC(=O)N(Cc2ccccc2)C1 (configuration not stated) | -2 | 4 | 6 | i | -5 | -5 | 0 | -11
Cc1ccc(/C=C2/Sc3ccc(C(=O)NCc4ccccn4)cc3NC2=O)cc1 | 1 | 3 | -13 | i | -8 | 0 | -30 | -9

The list continues:
SMILES | MT1-MMP act inh | MT1-MMP act inh RFP | UUG fidelity | Rce1 inhib | PABP FP inh | HIV Env fusion | eIF4H FP inh | CSC inhib | others
O=C(COC(=O)/C=C/c1ccccc1)NNC(=O)c1ccc([N+](=O)[O-])cc1 | 0 | 5 | -14 | i | x | 2 | x | -8
CCn1c(SCC(=O)N/N=C(\C)c2ccncc2)nnc1-c1ccc(C)cc1 | 3 | -10 | -1 | i | -14 | 11 | -1 | -16
Cc1ccc(C(=O)N(Cc2ccco2)c2c(N)n(Cc3ccccc3)c(=O)[nH]c2=O)cc1 | -3 | 1 | 10 | x | x | 12 | x | x
Cc1cc(C)c(NC(=O)C2CCCN2C)c(C)c1 (configuration not stated) | -2 | 1 | 0 | i | -1 | 6 | -2 | -10
COc1ccc(OC)c(S(=O)(=O)N2CCCC(C(=O)N3CCC(C(N)=O)CC3)C2)c1 (configuration not stated) | 0 | 2 | -25 | i | x | -6 | x | -14
Cc1ccc(OCc2nc(-c3ccccc3)no2)cc1 | 1 | 0 | -19 | i | 15 | -62 | 4 | -14
CNC(=O)/C(C#N)=C/c1c(F)cccc1Cl | -6 | -4 | x | i | -8 | 9 | 2 | 1
CN(c1ccccc1)S(=O)(=O)c1cccc2ccccc12 | -5 | -4 | -7 | i | 12 | 3 | 0 | 6
CCOC(=O)c1ccc(NC(=S)N2CCN(CCO)CC2)cc1 | 0 | 0 | -8 | i | -8 | 2 | -2 | 4
O=C(CS(=O)(=O)Nc1ccc(F)cc1Cl)Nc1ccc(F)cc1Cl | -4 | -9 | 5 | i | 1 | 13 | -2 | x
COc1cccc(Nc2nc(C(N)C(C)C)cs2)n1 (configuration not stated) | -3 | 3 | -17 | x | x | 30 | x | x
Cc1ccc(C)c(/C=N/NC(=S)NCCc2ccccc2)c1 | 0 | -1 | -16 | i | 6 | -160 | -5 | 3
Oc1ccccc1CNc1ccc2c(c1)OCCO2 | 2 | 6 | -31 | i | 0 | 7 | 6 | 6
CCOc1ccc(/C=C/C(=O)c2ccccc2)cc1OC | -8 | -16 | x | i | 4 | 2 | 0 | 23
COC(=O)c1cccc(NC(=O)CCc2c(C)noc2C)c1 | -2 | 1 | -19 | x | x | x | x | -19
CC1=C(C(=O)OC2CCCCC2)C(c2ccco2)C2=C(CC(C)(C)CC2=O)N1 (configuration not stated) | 0 | -8 | -39 | i | 7 | x | -2 | -1
COc1ccc(CC2(CO)CCN(Cc3cccn3-c3ccccn3)CC2)cc1 | -1 | 6 | -14 | i | -4 | -10 | -3 | 17
COc1cc2c(=O)n(CCC(=O)NCC3CCCO3)c(=O)n(CC(=O)Nc3ccc(F)cc3)c2cc1OC (configuration not stated) | 3 | 3 | 0 | x | 3 | -3 | -6 | -8
COc1ccc([N+](=O)[O-])c(C=CC(=O)c2ccccn2)c1 | 1 | -2 | 0 | x | x | -36 | x | x
C=C(C)COc1ccc(-c2[nH]ncc2Oc2ccccc2OC)c(O)c1 | 4 | -1 | -23 | i | -7 | x | -10 | -1
CN(C)c1ccc(/C=C/C(=O)c2ccc(C(C)(C)C)cc2)cc1[N+](=O)[O-] | 0 | -10 | x | i | 11 | 12 | -1 | 75*
CCCCn1c(=O)n(Cc2cccc(F)c2)c(=O)c2c1ncn2Cc1ccco1 | -4 | -10 | -7 | i | 9 | x | 16 | -10
